# Screens deposited in PubChem by several laboratories.
# BJeLR lethal – BJeLR cell viability loss; BJeLR (HRASV12) viability, CellTiter-Glo ATP luminescence, 48 h; reference of the scale not given here; inhibition, % (test concentration not listed); 300,000 compounds, 0.17% hits; AID 1554;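 active = replicate mean above 50%; inconclusive = above 50% but judged a plate artefact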;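 note: 50 nL library stock added to about 25 µL; numbers are from one replicate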
# Mtb hypoxia inh – inhibitors of hypoxia-regulated fluorescent reporter in Mycobacterium tuberculosis. M. tuberculosis hypoxia-regulated fluorescent reporter, fluorescence. fluorescence inhibition, % (test concentration not listed). AID 1159583. 300,000 compounds, 0.1% hits;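 active = 35 to 45% if threefold the growth effect, above 45% if 1.5-fold the growth effect; inactive = the rest, general growth blockers included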;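 note: wells of about 50 µL received 100 nL stock; 0% = vehicle wells and 100% = reference inhibitor wells; whole bacteria with a GFP reporter of the hypoxia response; strong numbers were not always called active; many hits fall short of the cut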
# PrP 5UTR inh – suppresses PrP 5' UTR mRNA reporter expression; cell-based PrP 5' UTR mRNA reporter, plate reader; inhibition, % (no concentration beside the values); 340,000 compounds, 0.35% hits;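 active = every replicate at 50% or more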;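 note: 0 = median of the neutral control wells; tested in H4 reporter cells; numbers are from one replicate; inactives centre near -14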
# RN4220 kill – S. aureus RN4220 growth inhibition; OD600, 16 h; inhibition, % (test concentration not listed); 330,000 compounds, 0.33% hits; AID 1259311;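 active = z-score of -3 or lower and OD600 up to 0.18 on both plates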;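 note: plate controls were untreated cells for no effect and reference antibiotic for full effect; stock transfer was 100 nL into about 80 µL; one replicate is shown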
# ugtP null kill – growth inhibition of S. aureus ugtP deletion strain; growth inhibition, % (no concentration beside the values); S. aureus RN4220 ugtP deletion, OD600 growth, 16 h; some inactives read as strong as hits; AID 1259309; 330,000 compounds, 0.54% hits;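 active = z-score under -3 and OD600 up to 0.15 on both plates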;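 note: plate controls were untreated wells for no effect and antibiotic for full effect; wells of about 80 µL received 100 nL stock; the first replicate is given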
# Autofluor counter – flagged as autofluorescent in microsphere protease counterscreen. compound autofluorescence counterscreen, microsphere flow cytometry; hits give high values. fluorescence intensity (no concentration beside the values). 360,000 compounds, 3.1% hits;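 active = at least 3 SD above the mean of all compounds, about 16000 in these data; inconclusive = too few beads counted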;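 note: 100 nL of 1 mM stock went into each well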
# Mtb hypoxia inh growth – further read-out of Mtb hypoxia inh, marked with its call; growth inhibition, %; measured here: M. tuberculosis growth (absorbance);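 0% = vehicle and 100% = reference antibiotic; read after six days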
# Active calls of the source: *; ? = inconclusive; . = no result given.
# The line under a structure holds: BJeLR lethal	Mtb hypoxia inh	Mtb hypoxia inh growth	PrP 5UTR inh	RN4220 kill	ugtP null kill	Autofluor counter
O=C(NCCCN=C1NS(=O)(=O)c2ccccc21)c1ccc(Cl)cc1
  -5	14	6	-21	-1.2	-2	3916
CC1C(=O)C(C)C(c2cccc(Br)c2)NC1c1cccc(Br)c1 (stereo unspecified)
  3	-10	-1	-13	-7.4	27	3958
CN(C)S(=O)(=O)n1cc(/C=C(\NC(=O)c2ccccc2)C(=O)N2CCCC2)c2ccccc21
  -3	-3	1	-16	7.4	14	4504
O=C(NCC1CCCO1)c1ccc(COc2ccc(Cl)cc2)cc1 (stereo unspecified)
  1	8	4	-12	11	18	1992
CN(C)C(CNC(=S)Nc1cccc(Cl)c1)c1cccnc1 (stereo unspecified)
  8	11	3	-44	3.8	6	2110
C[C@]12CCC3C(CC[C@H]4C[C@H](N)CC[C@]34C)C1CC[C@H]2O (stereo partly specified)
  3	-12	0	.	-0.9	-5	2878
COc1ccc(C(=O)/C=C/C(=O)N(Cc2ccccc2OC)C(C(=O)NC2CCCCC2)c2ccncc2)c(O)c1 (stereo unspecified)
  -3	-4	0	-10	5.9	-6	3591
O=C1C=C(c2cc(F)ccc2F)CC(c2ccc(F)cc2)C1 (stereo unspecified)
  .	2	4	.	1.4	4	.
Cc1ccccc1Nc1nc(N)nc(CSc2nnc(C)n2C)n1
  3	17	9	-33	4.6	7	4749
O=C(Nc1cccnc1)C1CCN(S(=O)(=O)c2cccs2)CC1
  5	1	4	-10	6.0	9	4279
O=C(CSc1ccc2nnc(-c3cccnc3)n2n1)Nc1ccc(F)cc1F
  -5	9	6	-5	5.6	11	3880
Nc1nonc1C(=O)NCCNC(=O)c1cccs1
  3	6	5	-21	5.2	0	9568
COc1cc(C(C)=O)ccc1OCC(O)CN1CCN(c2cc(C)cc(C)c2)CC1 (stereo unspecified)
  5	-2	-6	-18	4.4	1	3197
Cc1ccc(C(=O)C2CN(C)CC2C(=O)c2ccc(C)cc2)cc1 (stereo unspecified)
  1	-3	2	-16	9.6	6	3203
CC(C)(C)P(=O)(NCc1ccccc1)c1ccccc1 (stereo unspecified)
  .	-7	-3	1	6.4	10	3512
CC1(C)c2[nH]c3ccccc3c2C[C@@H]2C(=O)N(c3cc(F)ccc3F)C(=O)N21
  3	.	.	-2	.	.	3834
O=C(NC1CCCCC1)c1n[nH]c2c1CC(c1ccccc1)CC2 (stereo unspecified)
  .	5	8	-101	5.0	-3	3514
Cc1cc2oc(=O)cc(CN3CCN(S(=O)(=O)c4cccs4)CC3)c2cc1C
  -13	12	7	-15	3.0	2	2193
CCOC(=O)N1CCC(NC(=O)Cn2nc(-c3ccccc3)ccc2=O)CC1
  6	11	8	-22	1.7	0	8630
Cc1ccc(C=NNC(=O)CSc2nc3ccccc3c(=O)n2-c2ccccc2C)s1
  .	-12	-8	.	-4.7	-33	.
O=C(CCCSc1nc(-c2ccco2)cc(C(F)(F)F)n1)Nc1ccc2c(c1)OCO2
  -4	12	8	-12	-17	8	3479
Cc1ccc(C)c(N2CCN(C(=O)CCc3nc(-c4ccccc4C)no3)CC2)c1
  .	-10	-4	-4	2.9	12	4068
COc1ccc(NC(=O)C(CC(C)C)NS(=O)(=O)c2ccc3c(c2)CCN3C(C)=O)cc1OC (stereo unspecified)
  -8	10	10	-29	6.8	-3	10397
Cc1nn2c(Nc3ccc(F)cc3)c3c(nc2c1-c1ccccc1)CCC3
  4	-1	5	-20	0.0	2	2263
Cc1nccn1CCC1CCCCN1C(=O)CCc1nnc(-c2ccsc2)o1 (stereo unspecified)
  -2	4	-2	-26	10	16	3752
CN(Cc1cc2ccccc2[nH]c1=O)C(=O)c1cccs1
  3	-5	-3	-26	5.3	7	4847
COc1ccc(/C=N/OCC(=O)N(Cc2ccc(OC)cc2)c2ccccc2C(=O)O)cc1
  -10	.	.	-13	.	.	2517
COc1ccc(CSc2nnc(-c3ccncc3)n2C)cc1F
  -1	-3	5	-23	5.1	9	3362
CN(Cc1ccccc1)c1oc(COc2ccccc2F)nc1C#N
  -10	.	.	-32	4.3	12	5714
COc1ccc(NC(=O)CCCCC(=O)Nc2ccc(OC)cc2)cc1
  0	8	0	-9	2.7	11	3381
Cc1nn(Cc2ccccc2)c(Cl)c1C(=O)NCCc1ccccc1
  -2	0	-11	-64	3.0	4	2109
CNS(=O)(=O)c1ccc(NC(=S)Nc2ccc3c(c2)OCO3)cc1
  -1	-3	8	-18	1.3	4	4546
Cc1ccc(N2CC(O)=C(c3nc4ccccc4c(=O)[nH]3)C2=N)cc1C
  -2	-1	2	-19	1.2	-4	3522
CN1CCN(CC(=O)Nc2cccc([N+](=O)[O-])c2)CC1
  19	-5	17	-18	-0.6	-17	4483
Cc1noc(C)c1CSCC(=O)Nc1ccc(OC(F)F)c(Cl)c1
  3	7	-3	-2	0.9	3	5750
CCSc1nc2c(c(=O)[nH]1)C(c1ccccn1)C1=C(CC(C)(C)CC1=O)N2 (stereo unspecified)
  -3	8	6	-19	1.1	4	4070
C/C(=N\Nc1ccc([N+](=O)[O-])cc1[N+](=O)[O-])C(C)C(C)C (stereo unspecified)
  7	.	.	-37	.	.	4397
COc1ccc(C(O)c2nc3ccccc3n2C(C)C)cc1 (stereo unspecified)
  2	-7	17	-9	-0.7	-9	3495
CCC(=O)N1CCc2cc(S(=O)(=O)N(CC)c3cccc(C)c3)ccc21
  -5	1	1	2	13	5	4736
CCNc1nc(NCC)nc(N(n2cnnc2)S(=O)(=O)c2ccc(C)cc2)n1
  5	6	2	-21	97*	99*	1895
O=C(Nc1ccc(F)cc1)c1cc(Cl)sc1Cl
  .	7	2	-32	5.4	19	3713
O=C(O)CC(NCc1ccco1)C(=O)OCCCl (stereo unspecified)
  -3	2	-3	-25	3.6	-1	4369
COc1ccc(-c2nnnn2CCc2ccccc2)cc1
  -1	6	-5	-40	6.4	-3	10943
OC(COc1ccc2cc(Br)ccc2c1)CN1CCOCC1 (stereo unspecified)
  10	.	.	-6	2.2	0	3545
CCn1c(=O)n(CC)c2cc(S(=O)(=O)Nc3cc(C)cc(C)c3C#N)ccc21
  -8	1	3	-25	17	0	10997
COc1ccc(C2=NN(CCC(=O)NCc3cccs3)C(=O)CC2)cc1
  -6	12	4	-12	3.4	10	4524
CCc1ccc(OCc2cccc(C(=O)NN=Cc3cnn(C)c3C)c2)cc1
  .	2	-2	.	-0.8	-6	.
COc1ccc(CC(=O)Nc2ccc(S(=O)(=O)N3CCCC3)cc2)cc1OC
  .	10	5	-7	2.0	-2	3736
CCOC(=O)C1CCN(C(=O)CCC(=O)NCCc2ccc(Cl)cc2)CC1
  -8	9	1	-23	3.6	7	4055
CC1=C(C(=O)OCCNC(=O)c2ccccc2O)C(c2ccccc2[N+](=O)[O-])C(C(=O)OCC2CCCO2)=C(C)N1 (stereo unspecified)
  -8	9	4	-7	2.5	-13	1933
CCOC(=O)C1(CCOC)CCN(C(=O)c2sccc2C)CC1
  -7	.	.	-4	.	.	3317
O=C1CC(N2CCC(c3nc4ccccc4o3)CC2)C(=O)N1c1ccc(F)cc1 (stereo unspecified)
  3	9	-7	-7	8.6	7	4350
Cc1nonc1NC(=O)OCCN1CCOC1=O
  -2	1	3	-18	1.5	0	11248
CC1CCCCN1CCNC(=O)Cn1nc(-c2ccccc2)ccc1=O (stereo unspecified)
  0	9	2	12	1.6	3	8912
Cc1cc(C)nc(N/N=C/c2ccncc2)n1
  -7	.	.	-17	.	.	5260
O=C(NC(=S)NNC(=O)c1cccs1)c1ccc(Br)o1
  0	10	-2	-18	31	1	9926
COc1ccc(NC(=O)CN2CCCCC2)cc1
  1	11	11	-10	-0.3	-3	4607
Cc1ccc(NS(=O)(=O)c2c(C)[nH]c(=O)[nH]c2=O)cc1F
  -3	-10	2	-27	4.4	-2	3543
Nc1nnnn1/N=C/c1ccccc1
  7	.	.	-17	.	.	2926
CCN(CC(=O)Nc1ccc2c(c1)OCCO2)C(=O)c1cc(=O)[nH]c2ccccc12
  1	-13	0	3	-0.4	-1	?

# (list continues)
# The line under a structure holds: BJeLR lethal	Mtb hypoxia inh	Mtb hypoxia inh growth	PrP 5UTR inh	RN4220 kill	ugtP null kill	Autofluor counter
CC(=NNS(=O)(=O)c1ccccc1)c1ccc(NC(=O)C2CC2)cc1
  .	11	9	.	1.5	2	.
CN(C)S(=O)(=O)c1cccc(COc2ccccc2C(=O)Nc2ccccc2)c1
  6	3	-5	1	3.0	2	4541
COCCNC(=S)N(CCc1c(C)[nH]c2ccc(F)cc12)Cc1ccco1
  -3	8	2	-14	5.0	-7	3381
O=C(COC(=O)c1cc([N+](=O)[O-])ccc1N1CCOCC1)c1ccc(OC(F)F)cc1OC(F)F
  -2	-3	3	6	3.0	-11	?
CCOC(=O)c1ccc(N=C(C)c2c(O)[nH]c(=O)[nH]c2=O)cc1
  4	9	12	-11	0.6	-2	4001
COC(=O)[C@H](C)N(Cc1ccc(Cl)c(Cl)c1)S(=O)(=O)CCN1CCCC1
  .	2	7	-4	2.8	1	3887
COc1ccc(Br)cc1C(=O)Nc1cccc(NC(=O)c2ccco2)c1
  -8	0	1	-9	7.2	-17	9546
Cc1cccc(OC(C)C(=O)NC2CCS(=O)(=O)C2)c1C (stereo unspecified)
  -6	-6	5	-6	-1.9	-8	6151
CC(=O)c1cccc(NC(=O)CN(c2ccc(F)cc2)S(C)(=O)=O)c1
  3	.	.	-16	-16	-4	3189
Cc1ccc2c(c1)CCCN2C(=O)c1cc2ccccc2oc1=O
  -6	20	1	-14	0.7	5	16268*
COc1ccc(/C=C/C(=O)C23CC4CC(CC(C4)C2)C3)cc1CN1CCOCC1
  8	.	.	-4	.	.	2603
O=C(CCn1nnnc1CN1CCOCC1)N1CCC(c2cccc(Cl)c2)C1 (stereo unspecified)
  -1	5	2	-5	0.5	2	6218
Cc1ccc(-c2nc3s/c(=C\c4ccco4)c(=O)n3n2)cc1
  -7	.	.	-11	.	.	7600
O=C(Nc1ccccc1)N(Cc1ccc2c(c1)OCO2)Cc1nc2ccccc2c(=O)[nH]1
  -7	.	.	-12	2.7	-2	4140
Cc1ccccc1-c1nc(CN(C)C(C)c2ccon2)c(C)o1 (stereo unspecified)
  -4	7	8	-19	6.0	4	3977
C[C@@H]1CC=C[C@H]2[C@H]1C(=O)N(Cc1ccccc1)[C@H]2c1ccc(F)c(-c2ccc(N(C)C)cc2)c1
  1	.	.	-4	.	.	3878
CC(C)CCn1c(O)c(N=NC(=O)Cn2ccc(C(F)(F)F)n2)c2ccccc21
  13	.	.	1	.	.	7763
CCCn1c(N2CCN(CC(=O)NCc3cccs3)CC2)nc2ccccc21
  1	6	11	-8	2.1	-3	3925
Cc1ccc(Nc2nc(N)nc(CSC(=S)N3CCOCC3)n2)c(C)c1
  -1	5	14	-64	2.6	-2	9700
CCOc1ccc(/C(C)=N/N2C(=O)C(CC(=O)Nc3ccc(OC)cc3[N+](=O)[O-])SC2=Nc2cccc(C)c2C)cc1 (stereo unspecified)
  -3	.	.	13	.	.	1932
Cn1nc([N+](=O)[O-])nc1Sc1ccc(C(C)(C)C)cc1
  0	.	.	-7	.	.	2540
CCNc1nc(NCC)nc(Oc2ccc(OCc3ccccc3)nn2)n1
  -13	18	1	.	-2.7	3	.
COc1cccc(=O)c2c(C)n(-c3cc(C)cc(C)c3)c(C)c12
  -3	4	1	-13	5.6	-16	20048*
CN1CC2(C)OC(=O)C(Cl)=C2CC1c1ccccc1 (stereo unspecified)
  9	8	4	-23	1.5	2	2103
O/N=C1\CCCCc2ccccc21
  -6	.	.	-63	.	.	5357

# Single records, as listed above. Values in the order: BJeLR lethal | Mtb hypoxia inh | Mtb hypoxia inh growth | PrP 5UTR inh | RN4220 kill | ugtP null kill | Autofluor counter
# Profile of Cc1ccc(Nc2nc(N)nc(CSC(=S)N3CCOCC3)n2)c(C)c1 : -1 | 5 | 14 | -64 | 2.6 | -2 | 9700
# Profile of COC(=O)[C@H](C)N(Cc1ccc(Cl)c(Cl)c1)S(=O)(=O)CCN1CCCC1 : . | 2 | 7 | -4 | 2.8 | 1 | 3887
# Profile of O=C(Nc1ccccc1)N(Cc1ccc2c(c1)OCO2)Cc1nc2ccccc2c(=O)[nH]1 : -7 | . | . | -12 | 2.7 | -2 | 4140
